Ba CapD inh = blocks the Bacillus anthracis CapD enzyme | purified CapD enzyme, fluorescence intensity read-out; hits give low values; some hits fall short of the stated cut | z-score (no concentration beside the values) | actives 0.23% (n = 140,000) | AID 492967;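 active means z-score under -4 in either of two replicates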;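 further: stock transfer was 100 nL into about 40 µL; score is relative to mean and spread of the plate; one replicate is shown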
AID504770 = growth inhibitors of E. coli YBA685 in a screen for V. cholerae RctB (chromosome II replication) inhibitors. actives 0.27% (n = 130,000). z-score (concentration not given with the values). E. coli YBA685 rctB-dependent plasmid, OD600 growth, 3 h; hits give low values;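 active means z-score under -2 on both plates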;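 further: wells of about 30 µL received 100 nL stock; score is relative to mean and SD of the test wells; the first replicate is given; strong numbers were not always called active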
Numbers without * were called inactive; i = inactive; . = not tested or not shown.

Each structure is followed by: Ba CapD inh | AID504770
Cc1nc(N2CCOCC2)c2c(C)c(C(=O)NC3CCCC(C)C3C)sc2n1 (centres undefined)
    0.64 | .
COc1ccc(C(=O)N[C@H]2COC(C)(C)O[C@H]2c2ccccc2)cc1
    -0.055 | -0.3
Cc1ccc(Cn2c(SCC(O)CO)nc3c2c(=O)[nH]c(=O)n3C)cc1 (centres undefined)
    -0.155 | 0.15
CCOC(=O)N1CCN(C(=O)OCCc2ccc(C)cc2)CC1
    -0.185 | .
O=C(Cn1sc2ccccc2c1=O)N1CCN(c2ccccc2)CC1
    -0.355 | -0.3
CC(Oc1ccc(Cl)cc1Cl)C(=O)N(C)C (centres undefined)
    0.97 | -0.15
CNc1ccccc1C(=O)NCCc1ccccc1
    83.2 | .
CCOC(=O)c1c(C)noc1-c1csc(-c2cccc(C(F)(F)F)c2)n1
    0.18 | 0.35
Cc1ccccc1NC(=O)N1CCN(Cc2ccccc2)CC1
    0.19 | -0.4
CN(C)C(=O)CCSc1nc2cc(Cl)ccc2o1
    . | -1
C=C1c2ccccc2C(=O)N1c1cc(Cl)cc(Cl)c1
    -0.29 | -0.1
C=CCOC(=O)C1=C(C)N(CC)C(=O)NC1c1cc(Br)c(O)c(OC)c1 (centres undefined)
    0.15 | .
O=C(O)CCC(=O)N1N=C(c2c(-c3ccccc3)c3cc(Cl)ccc3[nH]c2=O)CC1c1ccc(Br)cc1 (centres undefined)
    2 | .
CCCCNC(=O)c1cc(-c2cccs2)on1
    -0.905 | 0.65
COC(=O)c1sc(SC)nc1N
    -0.83 | 0.05
CCN(CC)C(=O)N1CCC(C(=O)OC)CC1
    0.16 | 0.05
CCc1cccc(C)c1NC(=O)CCC(=O)N1CCOc2ccccc21
    -0.015 | 0.15
O=C(CCc1ccccc1)Nc1ccc2[nH]c(=O)oc2c1
    -0.4 | 0.45
COC(=O)c1ccc(/C=N/NC(=O)c2ccc(OC)c(OC)c2)cc1
    0.14 | .
O=C(Nc1nnc(CCS(=O)(=O)c2ccc3ccccc3c2)s1)c1ccc([N+](=O)[O-])cc1
    -0.17 | .
Cc1ccc2[nH]c(C(F)(F)F)cc(=O)c2c1
    34 | .
O=S(=O)(c1ccccc1C(F)(F)F)N1CCN(S(=O)(=O)c2ccccc2C(F)(F)F)CC1
    0.135 | -0.05
Cc1cccc(NC(=O)N2CCCC2C(=O)Nc2ccccc2)c1 (centres undefined)
    . | 2.05
O=C(NCc1ccccc1)c1cccc2c1C(=O)N(C1CCCCC1)C2
    0.06 | 0.4
c1ccc(-c2ccc(Oc3cnccn3)cc2)cc1
    . | 1
Cc1ccccc1OCCC(=O)NCCc1ccccn1
    . | 1.45
C=CCn1c(Cc2nc3ccccc3[nH]2)n[nH]c1=S
    0.295 | 0.75
COc1ccc(C/C(N)=N/OC(C)=O)cc1OC
    -0.145 | -1.35
C=CCOc1ccc(C(=O)N/N=C/c2cn(-c3ccccc3)nc2-c2ccccc2)cc1
    0.54 | .
COC(=O)COc1ccc(/C=C2\C(=O)NC(=S)N(c3ccc(OC)cc3)C2=O)cc1OC
    -0.46 | .
Cc1noc(C)c1COc1ccc2ccc(=O)oc2c1
    61.9 | -0.3
OC(COc1ccc2c(c1)CCC2)CN1CCCCC1 (centres undefined)
    -0.34 | -0.8
CC(C)N1CCc2[nH]c(=S)[nH]c(=O)c2C1
    0.84 | -0.5
Cc1csc(NC(=O)CSCC(=O)O)c1-c1nc2ccccc2s1
    -2.37* | -0.3
CCc1ccc(NC(=S)N(Cc2ccco2)C2CCN(C(C)C)CC2)cc1
    0.135 | -0.9
C=CCOC(=O)C1=C(C)NC(SCC(=O)Nc2ccc(OCC)cc2)=C(C#N)C1c1ccco1 (centres undefined)
    17.2 | .
CC(C)COC(=O)c1ccc(O)cc1
    -0.135 | -1.3
COc1cc(C(F)(F)F)c(C(=O)N(C)Cc2ccccc2Cl)cn1
    -0.745 | 1.5
O=c1c(=O)n(Cc2ncc(-c3ccccc3)o2)c2cc(Cl)ccc2n1Cc1ccccc1
    . | -0.55
CC1=NN(c2ccccc2)C(=O)/C1=C/c1cn(CC(O)CN2CCCCC2)c2ccccc12 (centres undefined)
    -4.83* | -0.5
Brc1ccccc1OCc1nc2ccccc2[nH]1
    -0.22 | -0.7
CCc1nc2ccccc2c2c1C(=O)N(Cc1cccnc1)C2=O
    -0.165 | .
Cc1cc2c(cc1C)C(c1cccc(C(F)(F)F)c1)CC(=O)N2 (centres undefined)
    0.435 | .
CC1=NN(c2ccc(C(=O)OC(C)C)cc2)C(=O)/C1=C\c1ccc(-c2ccc3c(c2)C(=O)NC3=O)o1
    -0.055 | .
Nn1c(SCC(=O)Nc2ccccc2Oc2ccccc2)nnc1C1CC1
    . | -0.5
Cc1cccc(N=Cc2c(C)c(C#N)c3[nH]c4ccccc4n3c2=O)c1C
    0.88 | -0.15
Cc1ccc(C23CC4CC(CC(C(=O)N5CCOCC5)(C4)C2)C3)cc1
    -0.35 | .
COc1ccc(/C=C2\C=C(c3ccccc3)N(c3cccc(C(=O)O)c3)C2=O)cc1
    -0.055 | .
CO/N=C/C(=N\Nc1ccc(C)c(C)c1)C(=O)c1ccc(-c2ccccc2)cc1
    -0.33 | .
COc1ccc(Nc2cnc(=O)nc3ccccc23)cc1
    . | -0.55
Cc1nc(-c2nnc(-c3ccccc3)o2)c(C(F)(F)F)o1
    0.485 | 0
COc1cc(/C=C2/SC(=S)N(CCC(=O)N3CCN(C)CC3)C2=O)cc(OC)c1OC
    -0.475 | .
Fc1ccccc1CN1CCN(Cc2ccccc2F)CC1
    . | -0.8
COC(=O)c1cc(C23CC4CC(CC(C4)C2)C3)oc1C
    -0.27 | -0.4
Cc1ccc(C)c(C(=O)OCC(=O)C(C)(C)C)c1
    . | 0.95
CN(C)C=NC(=O)c1sc2cc(C(F)(F)F)cnc2c1-c1ccccc1
    -0.8 | .
Cc1nc2ncnn2c(C)c1Cc1c(Cl)cccc1Cl
    -0.19 | -0.55
O=C(NCC(F)(F)F)c1ccc2c(c1)OCO2
    . | -1.2
c1csc(CNc2ccc(NCc3cccs3)cc2)c1
    0.93 | 1.1
CCOC(=O)c1[nH]c(=O)[nH]c1CSCCO
    . | 0.7

An excerpt from above in order of SMILES length, smallest number first.
Each structure is followed by: Ba CapD inh | AID504770
OC(COc1ccc2c(c1)CCC2)CN1CCCCC1 (centres undefined)
    -0.34 | -0.8
Cc1csc(NC(=O)CSCC(=O)O)c1-c1nc2ccccc2s1
    -2.37* | -0.3
O=c1c(=O)n(Cc2ncc(-c3ccccc3)o2)c2cc(Cl)ccc2n1Cc1ccccc1
    . | -0.55

For reference, 4 of the compounds above.
Each structure is followed by: Ba CapD inh | AID504770
Cc1noc(C)c1COc1ccc2ccc(=O)oc2c1
    61.9 | -0.3
OC(COc1ccc2c(c1)CCC2)CN1CCCCC1 (centres undefined)
    -0.34 | -0.8
CC(C)N1CCc2[nH]c(=S)[nH]c(=O)c2C1
    0.84 | -0.5
Cc1csc(NC(=O)CSCC(=O)O)c1-c1nc2ccccc2s1
    -2.37* | -0.3

Other compounds.
Each structure is followed by: Ba CapD inh | AID504770
CC(=O)Nc1c(-c2cccs2)nc2ncccn12
    97.9 | 0.45
CCCN1C/C(=C/c2ccsc2)C(=O)/C(=C/c2ccsc2)C1
    -4.72* | -1.15
O=C1OC(Nc2ccccc2)c2ccccc21 (centres undefined)
    i | -0.95
COc1ccc(-n2nc(C(=O)NCC(=O)Nc3ccc4c(c3)OCCO4)c3ccccc3c2=O)cc1Cl
    0.18 | -0.6
CCn1c2ccccc2c2nnc(NCCCN3CCN(c4cccc(Cl)c4)CC3)nc21
    0.295 | 0.15
CC(CC(=O)NCc1cccnc1)c1ccccc1 (centres undefined)
    . | -0.45
COc1ccc(NC(=O)C(C)Oc2ccc3c(C)c(CCC(C)C)c(=O)oc3c2)cc1 (centres undefined)
    0.1 | -2.9
Cc1ccc(-c2cn3ccccc3n2)cc1
    -0.715 | -0.8
Cc1cc(=O)n2[nH]c(S(C)(=O)=O)nc2n1
    1.36 | -0.95
CC1=Nc2cc(C(=O)N3CCOCC3)ccc2Sc2ccccc21
    -0.18 | 0.4
CCCCN(CCCC)CCNS(=O)(=O)c1ccc(OC)cc1
    0.75 | .
CC1(C)CC(=O)C2=C(C1)OC1=C(C(=O)CC(C)(C)C1)C2c1ccccc1
    -0.165 | .
O=C(Nc1ccccc1)N1CCC(C(=O)N2CCc3ccccc3C2)CC1
    . | -0.4
O=C(NNc1ccc(Br)cc1Br)C(O)(c1ccc(Cl)cc1)c1ccc(Cl)cc1
    0.21 | .
O=C(Nc1ccc(F)cc1)C1CCC(N2C(=O)C3C4C=CC(C4)C3C2=O)CC1 (centres undefined)
    0.12 | 0.3
Nn1c2ccccc2c2ccccc21
    4.45 | -1.15
CCSc1ncnc2sc3c(c12)CCC3
    0.91 | -0.1
O=C(CCc1ccccc1)NC(c1ccc2c(c1)OCO2)c1c(O)ccc2ccccc12 (centres undefined)
    30 | 0.2
Nc1nc2ccc(S(=O)(=O)c3ccc4nc(N)sc4c3)cc2s1
    5.58 | 0.6
CCn1c(SCCN2CCCC2)nnc1C1CCCN(S(C)(=O)=O)C1 (centres undefined)
    . | -0.3
CC1CC(C)(C)NC(=S)N1CCC(=O)N1CCc2ccccc2C1 (centres undefined)
    5.14 | .
COC(=O)c1cccc(C(=O)Nc2ccc(F)cc2)n1
    0.255 | -0.45
Cc1ccc2c(CNCCc3ccco3)c(C(=O)O)n(Cc3ccccc3)c2c1
    0.835 | 0.95
O=C(CC(c1ccc(F)cc1)c1ccco1)N1CCCCC1 (centres undefined)
    0.025 | -0.7
COc1ccc(-c2nn(-c3ccccc3)cc2C(=O)Nc2ccc3[nH]c(=O)[nH]c3c2)cc1
    . | 0.7
CC(C)N(CCC#N)C(=O)Nc1ccc2c(c1)CCO2
    -0.79 | -0.95
Cc1ccccc1CN1CCNC(=O)C1CC(=O)O (centres undefined)
    0.025 | -0.9
O=C(CSc1nc2ccccc2c(=O)n1C1CCCC1)Nc1ccc2c(c1)OCCO2
    . | -0.25
CSc1ccc(S(=O)(=O)Nc2ccccc2)cc1
    0.76 | 1.15
N#Cc1sc(-c2ccc(F)cc2)cc1N
    3.29 | .
Cc1nc(Nc2nc3ccccc3o2)[nH]c(=O)c1C
    2.67 | -0.2
Cc1ccccc1Nc1nc(N)nc(CN2C(=O)CS/C2=C\C(=O)C(C)(C)C)n1
    . | -0.65
O=C(OCc1nnc(-c2ccccc2)o1)c1cccc(S(=O)(=O)N2CCCC2)c1
    . | -0.9
CCCCCCCCCCCCSc1nnc(N)s1
    1.11 | .
O=C(/C=C/c1ccccc1)N1CCN(CCN2C(=O)C3C4C=CC(C4)C3C2=O)CC1 (centres undefined)
    . | -0.3
COc1ccccc1C1C2=C(CC(C)(C)CC2=O)NC2=C1C(=O)CC(C)(C)C2
    8.27 | .
Cc1nc(=O)c(-c2ccccc2)c(C)n1CCN1CCCCC1
    . | -0.55
O=c1c2ccccc2nc(/C=C/c2ccc(Cl)cc2Cl)n1-c1ccccc1
    0.255 | .
COc1ccccc1N1C(=O)NC(=O)/C(=C\c2ccc(OC)c3ccccc23)C1=O
    0.835 | .
COc1ccc(S(=O)(=O)N2CCCC(C(=O)NCCN3CCOCC3)C2)cc1C (centres undefined)
    . | 1.6
CC(C)Sc1nnc(NC(=O)C(C)C)s1
    -0.825 | -1.05
CCOC(=O)/C(=C\c1cc(Br)c(O)c(OC)c1)C1=Nn2c(C)nnc2SC1
    . | 0
COc1ccc(C(=O)N2c3ccccc3CC2C)cc1 (centres undefined)
    . | 0.6
CC(=O)C1=NN(c2cccc(Cl)c2)C2(S1)SC(c1ccc(Br)cc1)(c1ccc(Br)cc1)c1ccccc12 (centres undefined)
    -0.44 | .
CN(c1ccc(F)cc1)S(=O)(=O)c1ccc2[nH]cc(C(=O)N3CCN(c4ccccc4)CC3)c(=O)c2c1
    0.74 | .
C=CCN(CC=C)C(=O)c1cc(-c2ccccc2)nc2ccccc12
    0.27 | -0.35
NNCc1c(Cl)cccc1Cl
    . | -0.5
CCOc1ccc(NC(=O)CN2C3CCC2CC(=O)NC3)cc1 (centres undefined)
    . | 0.2
CCC(C)C(=O)O[C@H]1[C@H](O)C2C(CN3CC(C)CCC3[C@@]2(C)O)C2C[C@]34O[C@]5(O)C(OC(=O)C(C)(O)CC)CC[C@@]3(C)C5C(OC(C)=O)[C@@H](OC(C)=O)C4[C@@]21O (some centres undefined)
    1.28 | 0.85
CCC(C)c1ccccc1NC(=O)c1ccc(=O)n(C)n1 (centres undefined)
    . | -0.25
CC(C)(C)C(=O)Nc1ccccc1C(=O)NCc1cccnc1
    7.97 | -0.8
OC(COc1ccc(OCC(O)CN2CCCC2)cc1)CN1CCCC1 (centres undefined)
    0.7 | 0.25
CCn1c(-c2ccc(C)cc2)cs/c1=N\N=C/c1ccc(O)c(OC)c1
    . | -0.35
Nc1ccc(Sc2nc3ccccc3s2)c(Cl)c1
    -0.13 | -0.65
Cc1ccc[n+](Cc2cnc(C)nc2N)c1
    . | -0.55
Cc1sc2ncnc(NCc3ccc4c(c3)OCO4)c2c1C
    -0.225 | 0.8
CCCCn1c(CNC(=O)c2ccc(OC)cc2)nnc1SC
    -0.25 | -0.45
CC(C)(C)c1ccc(-c2nn3cnnc3s2)cc1
    -0.34 | 2.15
O=C(NCCc1ccccc1)c1ccc2c(=O)n(CCc3c[nH]c4ccccc34)c(=S)[nH]c2c1
    -1.69 | .
CC(C)Cc1nnc(NS(=O)(=O)c2ccccc2)s1
    -0.14 | -0.95
CCn1c(C)cc(O)c(C(c2cccc(OC)c2)N2CCN(c3ccccn3)CC2)c1=O (centres undefined)
    . | -0.35
Cc1ccc(NC(=O)Cc2c(Sc3ccccc3)c3ccccc3n2Cc2ccccc2)cc1
    -0.23 | .
OC1(C(F)(F)F)CC(c2ccc(F)cc2)=NO1 (centres undefined)
    13.4 | -0.7
